Source: PubChem BioAssay (National Center for Advancing Translational Sciences (NCATS))
AID923 – qHTS Assay for Allosteric/Competitive Inhibitors of Caspase-1: Spectroscopic Profiling in AFC Spectral Region; compound fluorescence, AFC spectral region (405/520 nm); almost no hit is shown here; Potency, µM (highest dose often 57.5 µM), without a hit: at the highest dose fluorescence increase, hits mostly activators; 75,000 compounds, 1.1% hits; active = well fitted activation curve with a large enough effect; inconclusive = small, poorly fitted or top-dose-only effect;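 note: potency is the fitted concentration of half-maximal effect; 0% is about no effect; scaled to a free AFC standard on each plate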
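Titrations up to 57 uM read every 20 sec for 3 min (405/520 nm) with 50 nM caspase 1 and 5 uM Ac-WEHD-AFC, pH 7.5 HEPES buffer. Fluorescence-vs-time intercept gave baseline, scaled against on-plate AFC standard.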
A647 autofl – A647 region autofluorescence | Compound fluorescence, A647 channel (570/671 nm), Tris buffer | max dye-equivalent concentration, M | 59,000 tested, under 10 active; active means above 1 µM dye equivalent; inconclusive means 0.1 to 1 µM; inactive means 0.1 µM or less;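 note: values scaled relative to a standard on each plate; highest value over a series up to 38 µM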
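Compounds pinned into 100 mM Tris pH 8.0, 15 min at room temperature, then read with 570 nm excitation/671 nm emission filters. Fluorescence normalized to an on-plate six-point Alexa 647 standard curve, giving dye-equivalent concentration per compound concentration.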
A488 fluor – compound fluoresces in the A488 spectral region | compound autofluorescence, A488 spectral region, dye equivalency; hits give high values | max dye equivalency, M | 59,000 compounds, 0.1% hits; active = above 10 nM dye equivalent; inconclusive = 1 to 10 nM; inactive = 1 nM or less; about half of its hits are not listed in these tables;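 note: highest value over a series up to 38 µM; compound alone in buffer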
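Compounds pin-transferred into 100 mM Tris buffer, pH 8.0, incubated 15 min at room temperature, then imaged with 480 nm excitation/540 nm emission filters. Fluorescence converted to Alexa 488 dye-equivalent concentration via an on-plate six-point A488 standard curve.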
TSHR ag – activates the human thyroid stimulating hormone receptor; HEK293-CNG-TSHR cells (CNG channel as cAMP sensor), membrane potential dye, cAMP; Potency, µM (highest dose often 57.1 µM), inactives show at the highest dose activation, actives largely listed as activators; P16473; 73,000 compounds, 0.48% hits; active = well fitted activation curve of enough size with the parental cells flat; inconclusive = any curve in the parental cells; inactive = parental cells flat and receptor cells flat or falling; note: potency is the fitted concentration of half-maximal effect; % of control where 0% means no effect; weak receptor curves with flat parental cells got no call and are not listed
Target sequence (P16473 whole entry, looked up): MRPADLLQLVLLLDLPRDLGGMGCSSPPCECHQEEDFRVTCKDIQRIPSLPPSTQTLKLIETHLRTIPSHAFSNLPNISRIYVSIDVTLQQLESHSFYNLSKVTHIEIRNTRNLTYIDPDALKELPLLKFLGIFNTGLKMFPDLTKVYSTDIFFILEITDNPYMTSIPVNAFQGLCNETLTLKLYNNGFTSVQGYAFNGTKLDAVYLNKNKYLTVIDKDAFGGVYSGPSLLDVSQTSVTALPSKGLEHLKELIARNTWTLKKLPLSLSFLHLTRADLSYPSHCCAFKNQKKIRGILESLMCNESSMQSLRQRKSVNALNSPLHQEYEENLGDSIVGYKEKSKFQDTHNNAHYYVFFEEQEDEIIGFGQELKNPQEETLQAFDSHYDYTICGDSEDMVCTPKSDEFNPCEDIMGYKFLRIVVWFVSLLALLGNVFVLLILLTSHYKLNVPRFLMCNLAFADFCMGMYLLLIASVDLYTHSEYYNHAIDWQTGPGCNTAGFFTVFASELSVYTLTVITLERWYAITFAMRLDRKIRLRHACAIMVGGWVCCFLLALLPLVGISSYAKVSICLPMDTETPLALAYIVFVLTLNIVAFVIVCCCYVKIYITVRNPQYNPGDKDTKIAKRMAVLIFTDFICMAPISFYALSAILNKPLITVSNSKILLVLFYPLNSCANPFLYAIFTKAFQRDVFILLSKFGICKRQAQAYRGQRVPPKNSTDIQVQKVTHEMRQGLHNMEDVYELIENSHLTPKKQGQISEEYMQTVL
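HEK 293 cells stably expressing TSHR and a cAMP-gated CNG channel; parental CNG-only cells as counterscreen. Cells preloaded 60 min with membrane potential dye plus 100 uM RO 20-1724, then compound 30 min; fluorescence read at 590 nm.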
Resorufin fluor – resorufin region autofluorescence. Compound fluorescence, resorufin region 547/598 nm, buffer; hits give high values. max dye-equivalent concentration, M. 59,000 compounds, 0.04% hits. AID 588; active = above 10 nM dye equivalent; inconclusive = 1 to 10 nM; inactive = 1 nM or less; a few of its hits are not listed in these tables; note: highest value over a series up to 38 µM
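Read-out: intrinsic compound fluorescence at ex 547/em 598 nm after 15 min at RT in pH 8.0 Tris (100 mM). Values expressed as resorufin-equivalent concentration from per-plate standard series.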
The depositor's hits bear a star; i = inactive; ? = inconclusive; . = no result given; & = joins results of further samples; [ ] = dose if it differs, or a comment. Not all compounds are listed; rates above refer to the full screens.

Under each structure: A488 fluor | A647 autofl | AID923 | TSHR ag | Resorufin fluor
COc1cc(C2SCC(=O)Nc3c2c(=O)[nH]n3C2CCCCCC2)cc(OC)c1OC (configuration not stated)
→ . | . | -0.1% | -34.7%[inhibitor] | .
COc1ccc(C2NCc3ccc4c(c3-n3cccc32)OCO4)cc1OC (configuration not stated)
→ i | 2.58e-08 | 0.5% | . | i
Cn1ccnc1P(=S)(c1nccn1C)N1CCOCC1
→ i | 1.6e-09 | 0.3% | 12.6%[11.4 µM] | i
CCC(=NC1CC1)c1c(O)n(-c2ccc(OC)cc2)c(=O)[nH]c1=O
→ i | 3.3e-09 | 0.6% | -3.8% | i
O=S1(=O)N(CCN2CC=C(c3c[nH]c4cc(F)ccc34)CC2)c2cccc3c2N1CCC3
→ i | 4.6e-09 | 1.3% | -5.1% | i
CC(CO)(CO)N=Cc1c(O)n(-c2cccc3ccccc23)c(=O)[nH]c1=O
→ . | . | -0.9% | 4.4% | .
Cl/C=C\Cl
→ . | . | -0.6% | -2.0% | .
CCCCCCn1c(O)c(C=NCCCn2ccnc2)c(=O)[nH]c1=O
→ i | 3.4e-09 | . | . | i
O=c1c2ccccc2nc(-c2ccco2)n1-c1cccnc1
→ . | . | 3.2% | -3.6% | .
COc1ccc(CN2CCN(C(=O)Cc3ccccc3)CC2)c(OC)c1
→ . | . | 1.3% | 15.0%[11.4 µM] | .
CC1CCC(C(C)C)C(OP(N)(=O)c2ccccc2)C1 (configuration not stated)
→ i | 1e-09 | . | . | i
Cc1ccc2nc3c(cc2c1)CC1(C(=O)N(C)C(=O)N(C)C1=O)C1COCCN31 (configuration not stated)
→ i | 2.04e-08 | 0.8% | -2.2% | i
CCCC(C)C1(CC)C(=O)NC(=Nc2ccc(F)cc2)NC1=O (configuration not stated)
→ i | 3.92e-08 | 0.5% | 4.3% | i
COc1ccc(C(=O)C(Cc2ccccc2)N(C)C)cc1 (configuration not stated)
→ i | 2.5e-09 | -0.7% | . | i
OC(c1ccc(F)cc1)C(c1ccccc1)N1CCOCC1 (configuration not stated)
→ i | 2.67e-08 | . | . | i
COC[C@@H]1OC(=O)c2coc3c2[C@]1(C)C1=C(C3=O)[C@H]2CCC(=O)[C@]2(C)C[C@@H]1OC(C)=O
→ i | 3.46e-08 | . | 4.2% | i
CC(=NCCCN1CCOCC1)c1c(O)n(Cc2ccccc2)c(=O)[nH]c1=O
→ i | 1.55e-08 | -0.1% | 6.8% | i
O=c1[nH]c(=O)n(Cc2ccc(F)cc2)c(O)c1C=NCCN1CCCCC1
→ i | 2.8e-08 | -1.3% | -0.6% | i
N[C@H](Cn1cc(I)c(=O)[nH]c1=O)C(=O)O
→ i | 4.24e-08 | . | 1.9% | i
CO
→ . | . | 2.8% | ? | .
COC(=O)C(c1ccccc1)N1CCCCCC1 (configuration not stated)
→ i | 8.46e-08 | . | . | i
CC(C)[C@@]1(NC(=O)[C@@H]2C[C@H]3c4cccc5[nH]cc(c45)C[C@@H]3N(C)C2)O[C@]2(O)[C@H]3CCCN3C(=O)[C@H](Cc3ccccc3)N2C1=O
→ i | 5.8e-09 | 5.1%[25.7 µM] | -8.0%[25.6 µM] | i
O=C(COc1ccc(Cl)cc1)N1CCN(Cc2ccccc2)CC1
→ . | . | 0.7% | -4.9% | .
Oc1c(Cl)cc(Cl)cc1CN1CCN(Cc2ccccc2)CC1
→ . | . | 4.9% | 22.1% | .
CN1Cc2ccccc2[C@@H]2c3cccc4[nH]cc(c34)C[C@H]21
→ . | . | 6.6% | -14.0% | .
Cc1cccn2c(=O)c(C=Nc3ccccc3)c(NCc3ccco3)nc12
→ i | 1e-09 | 2.1% | ? | i
O=c1[nH]c(=O)n(CCC2=CCCCC2)c(O)c1C=NC1CCN(Cc2ccccc2)CC1
→ i | 1.9e-09 | 0.2% | ? | i
COc1ccc(C2=NCC(=O)N(CC(=O)NCc3ccco3)c3sc4c(c32)CCCC4)cc1
→ i | 8.2e-09 | -2.8% | 15.8µM* | i
CCC(C)(C)n1nnnc1C(c1cccc(C#N)c1)N1CCN(c2cc(C)ccc2C)CC1 (configuration not stated)
→ i | 1e-09 | -0.9% | ? | i
CCCCCCn1c(O)c(C=NC2CCN(Cc3ccccc3)CC2)c(=O)[nH]c1=O
→ i | 1e-09 | . | . | i
COc1ccc(C2NCc3ccc4c(c3-n3cccc32)OCO4)cc1O (configuration not stated)
→ i | 2.33e-08 | 1.4% | ? | i
CC12CCCCC1=[N+]([O-])CN2O (configuration not stated)
→ i | 6e-09 | -0.5% | -1.0% | i
COC(=O)Nc1nc2ccccc2[nH]1
→ . | . | 2.1% | 8.1% | .
O=C(c1ccc2c(c1)ncn2C1CCCCC1)N1CCC2(CC1)OCCO2
→ i | 1e-09 | -0.4% | -8.3% | i
CC(C)CN1CCC2(CC1)CCN(C(=O)Oc1ccccc1)CC2
→ i | 1e-09 | -1.0% | 2.3% | i
C=CCn1c(O)c(C(C)=NCCN2CCOCC2)c(=O)[nH]c1=O
→ i | 1.58e-08 | -0.2% | -1.3% | i
c1cc(CN2CCCC3(CCNCC3)C2)ccn1
→ i | 1.46e-08 | 0.3% | 12.6% | i
CCCCOCCCn1c(N)c(C(=O)OCCOC)c2nc3ccccc3nc21
→ i | 1e-09 | . | . | i
CNC(=O)N(C)c1nnc(C(C)(C)C)s1
→ i | 1e-09 | -1.3% | . | i
c1ccc(C2CO2)cc1 (configuration not stated)
→ . | . | -2.2% | ? | .
O=C(c1ccc2c(=O)n(Cc3ccc4c(c3)OCO4)c(=S)[nH]c2c1)N1CCC2(CC1)OCCO2
→ i | 8.5e-09 | -0.2% | -13.5% | i
CN(C)C=O
→ . | . | 3.2%&-1.3% | ? | .
Cc1coc2c1CCC(C)C2 (configuration not stated)
→ . | . | 1.5% | ? | .
C[C@]12CC[C@H](O)C[C@@H]1CC[C@H]1[C@H]2CC[C@]2(C)[C@H](C(=O)CO)CC[C@@H]12
→ i | 1.1e-08 | -1.2% | ? | i
Cc1ccc(C)c(NC2=NCCCS2)c1
→ i | 1e-09 | -0.4% | 3.6% | i
CCCCOC(=O)c1ccccc1C(=O)OCc1ccccc1
→ . | . | 2.4% | ? | .
COC(=O)[C@]1(C)C[C@H]1[C@H](NP(=O)(c1ccccc1)c1ccccc1)c1ccccc1
→ . | . | 2.5% | ? | .
COc1ccc(CN2CCN(C(=O)COc3cccc(C)c3)CC2)c(OC)c1
→ i | 3.3e-08 | 2.6% | 12.9% | i
CCc1cc2c(nc1CC)CCN(CC/C(C)=N/OC)C2
→ . | . | 0.6%[11.5 µM] | 13.0%[11.4 µM] | .
CCNCCC1(CC)C(=O)NC(=O)NC1=O
→ i | 1e-09 | 1.6%[11.5 µM] | 4.1%[11.4 µM] | i
Cc1ccc2nc(N3CCN(C)CC3)[nH]c2c1
→ i | 2.24e-08 | 0.7% | -2.1% | i
CN1[C@@H]2CC[C@H]1CC(OC(=O)c1cc(Cl)cc(Cl)c1)C2 (some centres not stated)
→ i | 2.9e-09 | -3.1% | ? | i
CC1(C)CN=C(Nc2nc3ccccc3s2)S1
→ i | 1e-09 | -2.3% | . | i
CC1=NOC2(C)Nc3ncnn3C(c3ccccc3)C12 (configuration not stated)
→ i | 3.84e-08 | . | . | i
CN1CCc2nc(CO)c(CO)cc2C1
→ . | . | 1.6%[11.5 µM] | -4.5%[11.4 µM] | .
O=C(CN1CC=C(c2ccccc2)CC1)NC(=O)NCc1ccco1
→ i | 1e-09 | 7.3% | 14.8% | i
Cc1ccc(C2(O)CC(C)N(C)CC2C)cc1 (configuration not stated)
→ i | 5.26e-08 | -3.1% | 0.9% | i
Cn1c(O)c(C=NCCCNC2CCCCC2)c(=O)n(C)c1=O
→ i | 3.6e-08 | . | . | i
COc1cc(C2NCc3ccccc3-n3cccc32)ccc1O (configuration not stated)
→ i | 5.7e-09 | 0.2% | 7.9% | i
Cc1nc2cc(C(F)(F)F)ccc2n1C1CCN(Cc2nnnn2Cc2ccc3c(c2)OCO3)CC1
→ i | 1e-09 | -3.1% | 6.9% | i

Carrying on:
Under each structure: A488 fluor | A647 autofl | AID923 | TSHR ag | Resorufin fluor
C[N+]1(C)C2CC[C@H]1CC(OC(=O)[C@@H](CO)c1ccccc1)C2 (some centres not stated)
→ i | 5.23e-08 | -0.1%[11.5 µM] | 2.0%[11.4 µM] | i
COc1cc2c(c(OC)c1OC)-c1ccc(O)c(=O)cc1[C@@H](NC(C)=O)CC2
→ i | 8.2e-09 | 1.4% | 1.6% | i
c1ccc(Cc2nn3c(Cn4cnc5ccccc54)nnc3s2)cc1
→ i | 1e-09 | 0.2% | ? | i
O=[N+]([O-])c1c(Cl)c(Cl)cc(Cl)c1Cl
→ . | . | -2.8% | ? | .
CCCCN1C(=O)NC(=O)C2(Cc3c(nc4c(C)cccn4c3=O)N3CCc4ccccc4C32)C1=O (configuration not stated)
→ i | 3.8e-08 | 0.7% | 23.7% | i
N#C/C(=C\c1ccc(O)c(O)c1)C(N)=S
→ i | 1.03e-08 | 1.1%&-2.4% | ? | i
CCOC(=O)CN1C(=O)C2(C(C#N)=C(N)Oc3ccccc32)C(C(=O)OC)=C1C (configuration not stated)
→ i | 3.9e-09 | -0.6% | -5.2% | i
C[C@H]1C[C@@H](C)C(=O)[C@@H]([C@H](O)CC2CC(=O)NC(=O)C2)C1
→ i | 5.44e-08 | -2.3%[25.7 µM] | -9.6%[25.6 µM] | i
O=C1NC(=O)C2(Cc3ccccc3N3CCCC32)C(=O)N1c1ccc(Cl)cc1 (configuration not stated)
→ i | 4.8e-09 | 12.9% | 6.4% | i
Nn1cnnc1
→ . | . | -0.2% | 6.2% | .
O=C(O)[C@H]1C2c3ccccc3C(c3ccccc32)[C@@H]1C(=O)NCC1CC1
→ i | 1e-09 | -1.1%[11.5 µM] | -0.4%[11.4 µM] | i
CN(C)C1(c2nnnn2-c2ccc(Cl)cc2)CCCCC1
→ . | . | -2.7% | 147.8% | .
c1cncc(C2CC(c3cccs3)n3ncnc3N2)c1 (configuration not stated)
→ i | 1.34e-08 | -0.6% | 9.3% | i
